PMP22 txn prim: Cell-based coincidence reporter assay to measure PMP22 gene transcription in S16 Pmp22-F2sN cells - Primary screen. S16 Pmp22-F2sN Schwann cells (luciferase reporters placed in the Pmp22 gene), FLuc/NLuc coincidence luminescence, 24 h. Potency, µM (top dose mostly 57.5 µM), for inactives: at the top dose activity change, negative = inhibition, actives largely listed as inhibitors. actives 2% (n = 43,000). AID 1508649, 2021; active = clear falling dose curves in both reporters; inconclusive = both reporters move, but less clearly or upward; inactive = either reporter flat; the % is the NLuc reporter signal; further: on the % scale 0 is the no-effect control and ±100 the full control effect; some results filed as inactive show a strong effect at the top dose
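Rat S16 Pmp22-F2sN cells, 500-1,000/well in phenol red-free DMEM + 10% FBS, compound-treated 24 h (37C, 5% CO2). Luminescence: FLuc read, Stop&Glo added, NLuc read.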
HTT promoter inh: Primary qHTS for Identification of Small Molecule Inhibitors of Huntingtin Promoter Activity | HEK293 HTT promoter firefly luciferase reporter (activity 0% = vehicle and -100% = no light), 24 h | Potency, µM (series often up to 57.5 µM), for the others: at the top dose activity change, negative = inhibition, hits mostly inhibitors | AID 1508623, 2021 | actives 0.93% (n = 48,000); active means well fitted inhibition curve with a large enough effect; inconclusive means small, poorly fitted or top-dose-only effect; inactive means no such curve, though single readings can be large or run the other way; further: nearly all actives have a fitted effect of over 50% in size
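Quantitative HTS used concentration series of up to 57.5 uM final on HEK293 luciferase reporter cells, 24 h at 37 degrees C. Readout was Dual-Glo firefly luminescence.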
* = called active by the depositor; ? = inconclusive; · = no result given; [ ] = remark or other dose. Potency means the concentration at half of the fitted maximal effect. Rows were taken by chance, and some 2.6% of all compounds hit somewhere here.

SMILES	PMP22 txn prim	HTT promoter inh
CCc1ccc(C2c3c(-c4ccccc4O)n[nH]c3C(=O)N2Cc2cccnc2)cc1 (centres undefined)	-18%	?
CC(C)(C)c1ccc(S(=O)(=O)c2cnc(SCC(=O)Nc3ccc4c(c3)OCCO4)[nH]c2=O)cc1	28%	-1%
O=C1CC(c2cccc(O)c2)c2c(nc(SCc3ccccc3F)[nH]c2=O)N1 (centres undefined)	?	-4%
COc1cccc(CNC(=O)c2oc3c(c2C)-c2nn(Cc4cccc(Cl)c4)cc2CC3)c1OC	-30%	?
Cc1oc2ncnc(N3CCOCC3)c2c1C(=O)NCc1ccc(Cl)cc1	6%	-20%
CCc1ccccc1NC(=O)CSc1nc2c(oc3ccccc32)c(=O)n1C	-19%	-12%
O=C(CCS(=O)(=O)c1cccc2nonc12)Nc1ccc(Br)cc1	-9%	-24%
Cc1c(C(=O)OCCOc2ccccc2)[nH]c2c1C(=O)CC(c1ccccc1Cl)C2 (centres undefined)	5.3µM*	?
CCc1ccc(OCCCSc2nc(-c3ccc(C(C)(C)C)cc3)nc3cc(=O)[nH]n23)cc1	-37%	-6%
Fc1cccc(CN2CCc3nc(Nc4ccc5c(c4)OCCO5)ncc3C2)c1F	-12%	-12%
CCCCn1c(SCC(=O)NCCCOC)nc2c(sc3ccccc32)c1=O	?	-9%
Cc1ccc2scc(N3CCN(c4cccc(C(F)(F)F)c4)CC3)c(=O)c2c1	-49%	2%
CCc1ccc(-n2c(=O)c3sc4ccccc4c3n(CC(=O)NC3CCCCC3)c2=O)cc1	-29%	-6%
Cc1ccc(-c2nc3ccccn3c2Nc2ccc3c(c2)OCCO3)s1	?	-22%
CCOC(=O)c1c(NC(=O)COc2ccc(Br)cc2)sc(C(C)=O)c1C	2.1µM*	-21%
CCOC(=O)c1c(C)[nH]c(C)c1S(=O)(=O)N1CCC(C(=O)Nc2ccccc2CC)CC1	17%	-20%
O=C(NCCS(=O)(=O)N1CCN(c2cccc(Cl)c2)CC1)c1cc(=O)c2ccccc2o1	?	?
CCOc1ccccc1NC(=O)CCn1c(-c2ccc(OC)cc2)cc(C(C)=O)c1C	2%	?
COc1cccc(CNC(=O)CCCn2c(=O)c3cccn3c3ccc(F)cc32)c1OC	-39%	-4%
Cc1nc(-c2ccc(F)cc2)sc1CCNC(=O)c1ccco1	4%	7%
CC(C)c1nn2c(=O)cc(COC(=O)c3ccccc3Cl)nc2s1	?	25%
O=C(Nc1ccccc1F)c1cnc(N2CCCCC2)c2ccccc12	?	?
CCc1ccc(-n2nc(CO)c(C(=O)NCCCCc3ccccc3)n2)cc1	-1%	-6%
COc1ccc(S(=O)(=O)NCC(c2ccco2)N2CCN(c3ccc(F)cc3)CC2)cc1C (centres undefined)	?	?
CCOC(=O)c1cc(S(=O)(=O)Nc2ccc(C)cc2Cl)[nH]n1	-39%	-8%

Arranged by the number under HTT promoter inh (largest number first): 3 from the list above.
Molecule | HTT promoter inh
O=C1CC(c2cccc(O)c2)c2c(nc(SCc3ccccc3F)[nH]c2=O)N1 (centres undefined) | -4%
CCOC(=O)c1cc(S(=O)(=O)Nc2ccc(C)cc2Cl)[nH]n1 | -8%
CCc1ccccc1NC(=O)CSc1nc2c(oc3ccccc32)c(=O)n1C | -12%

The listing picks up, starting four compounds before the break.
SMILES	PMP22 txn prim	HTT promoter inh
O=C(Nc1ccccc1F)c1cnc(N2CCCCC2)c2ccccc12	?	?
CCc1ccc(-n2nc(CO)c(C(=O)NCCCCc3ccccc3)n2)cc1	-1%	-6%
COc1ccc(S(=O)(=O)NCC(c2ccco2)N2CCN(c3ccc(F)cc3)CC2)cc1C (centres undefined)	?	?
CCOC(=O)c1cc(S(=O)(=O)Nc2ccc(C)cc2Cl)[nH]n1	-39%	-8%
CCOc1ccccc1CNC(=O)C1CCCN(S(=O)(=O)c2ccc3c(ccn3C)c2)C1 (centres undefined)	?	-1%
Cc1ccc(C)c(NC(=O)c2cc(S(=O)(=O)NCc3ccccc3)ccc2F)c1	2%	-27%
Cc1ccc(NC(=O)/C=C/c2ccco2)cc1F	?	48%[activator]
Cc1cc(C)c2c(-n3cccc3)c(C(=O)NCC(C)c3ccccc3)sc2n1 (centres undefined)	?	-15%
COc1cc(NC(=O)Cn2ccn(Cc3ccccc3OC)c(=O)c2=O)cc(OC)c1	-4%	-14%
CCN(CC)S(=O)(=O)c1ccc2oc(C(=O)N(C)Cc3ccccc3)c(C)c2c1	-25%	-29%
CC(=O)Nc1nonc1-c1nnc(SCC(=O)Nc2ccc(C)c(Cl)c2)n1-c1ccccc1	?	-11%
COc1cc(C(=O)Nc2ccc(-n3c(C)nc4ccccc4c3=O)cc2)cc(OC)c1OC	?	0%
CCCCN(CC)CCNC(=O)c1cn(CCOC)c(=O)c2c1c1ccccc1n2C	-13%	-6%
COc1ccc(NC(=O)C(C)n2nc(C)c3c(C)n(-c4ccccc4)nc3c2=O)cc1Cl (centres undefined)	-9%	?
CCOC(=O)c1ccc2c(c1)N(C(CC)C(=O)Nc1ccccc1OC)C(=O)c1ccccc1S2 (centres undefined)	?	?
Cc1ccc(C(=O)Nc2ccc3nc(SCC(=O)N4CCCc5ccccc54)sc3c2)cc1	-14%	-26%
CCc1cccc(NC(=O)Cn2c(=O)c(C(F)(F)F)nc3ccccc32)c1	?	-6%
COc1ccc(CNC(=O)COCc2cc(-c3cccs3)on2)cc1OC	?	?
Cc1ccc(C)c(Cn2c(CCCNC(=O)C3CCCCC3)nc3ccccc32)c1	?	-28%
COc1ccc(Cl)cc1NC(=O)NCCn1c(=O)oc2ccc(C)cc21	-4%	-21%
CC1=C(C(=O)OC2CCCCCC2)C(c2c(F)cccc2Cl)CC(=O)N1 (centres undefined)	17%	?
CC(C)(C)OC(=O)N1CCC(c2c(C(=O)N3CCOCC3)cnn2-c2cccc(F)c2)CC1	?	-7%
Cc1ccccc1NC(=O)c1nc(S(C)(=O)=O)ncc1N(Cc1ccco1)Cc1sccc1C	-32%	-26%
CCCCSc1nnc2c(n1)OC(c1ccc(Br)s1)Nc1ccccc1-2 (centres undefined)	-131%	20%
COc1cc(NC(=O)Cn2nnc(-c3ccc(C(F)(F)F)cc3)n2)c(C(=O)O)cc1OC	2%	-2%
COc1ccc(Cl)cc1NC(=O)Cc1ccc(NC(=O)N2CCCCc3ccccc32)cc1	34%	-21%
COC(=O)Cn1c(SCCOc2ccccc2Cl)nc2ccccc21	-25%	1%
COc1ccc(NC(=O)Cn2c(=O)n(CCCC(=O)NCc3ccccc3Cl)c(=O)c3ccccc32)c(OC)c1	?	-28%
COc1cc(OC)c(NC(=O)c2nn(-c3ccc(C)cc3)c(=O)c3c2c2ccccc2n3C)cc1Cl	?	-6%

(more compounds)
SMILES	PMP22 txn prim	HTT promoter inh
CCN(Cc1ccccc1)C(=O)c1c(C)oc2ncn(C)c(=O)c12	3%	0%
OC1C(O)C(O)C(O)C(O)C1O (centres undefined)	·	-1%
O=C(CN1C(=O)COc2ccc(S(=O)(=O)N3CCOCC3)cc21)NCc1ccc(F)cc1	0%	0%
CCc1ccc(CNC(=O)c2ccc(-c3nc(CSc4ccc(C)cc4)c(C)o3)cc2)cc1	?	-15%
CCN(c1ccc(Cl)cc1)S(=O)(=O)c1nnc(NC(=O)C(C)C)s1	1%	1%
CCOC(=O)c1cc(-c2ccc(F)cc2)n(CCC(=O)Nc2cc(OC)cc(OC)c2)c1C	-9%	?
O=C(NCc1ccccc1Cl)c1ccc2c(c1)nnn2C1CCCC1	-17%	38%[activator]
CCOC(=O)c1ccc(NC(=O)c2c(N3CCCC3=O)c3cc(OC)ccc3n2C)cc1	-7%	-39%
CCOC(=O)c1cc(S(=O)(=O)N(C)c2ccccc2)[nH]n1	-2%	-18%
COc1ccc(C(=O)N2CCN(C(=O)COc3ccc(Br)cc3)CC2)cc1OC	-30%	-13%
Cc1ccc2c(c1)-c1c(cnc3cc(-c4ccc(Cl)cc4)nn13)CO2	-13%	0%
CCCCNS(=O)(=O)c1ccc2nc(-c3cccnc3)cc(C(=O)NCCCOC(C)C)c2c1	-16%	21%
Cc1ccc(N2C(=O)CS(=O)(=O)C23C(=O)N(C)c2ccccc23)cc1F (centres undefined)	-8%	-20%
CN(C)CC(C)(C)CNc1nn2c(-c3ccccc3)nnc2cc1C1CCC1	·	-22%
Cc1ccc(CNC(=O)CN2C(=O)C3(SCC(=O)N3c3cc(C)cc(C)c3)c3ccccc32)cc1 (centres undefined)	-23%	?
Cc1ccc(CNC(=O)c2c(C)oc3nc(C)nc(N4CCOCC4)c23)cc1	-3%	-4%
COc1ccc(NC(=O)CSc2nc3ccccc3nc2N2CCC(C)CC2)cc1	-14%	-17%
Cc1ccccc1C(=O)Nc1nc(-c2nnn(-c3ccc(C(C)C)cc3)c2C)ns1	9%	?
COc1ccc(NC(=O)COc2ccc(S(=O)(=O)NC3CCCCC3)cc2)cc1OC	1%	?
Cc1ccc(N2CC(C(=O)NCc3nnnn3-c3ccc(C)c(C)c3)CC2=O)cc1C (centres undefined)	9%	8%
Cc1ccc(CNC(=O)c2oc3c(c2C)-c2nn(Cc4ccc(Cl)cc4)cc2CC3)cc1	-73%	?
O=C(c1noc2c1CCCCC2)N1CCN(c2cccc(C(F)(F)F)c2)CC1	-28%	?
CCOc1ccc(NC(=O)c2oc3ccccc3c2NC(=O)c2cc(C)cc(C)c2)cc1	-6%	-10%
CCC(=O)N1CCc2cc(Br)cc(S(=O)(=O)Nc3ccc(C)cc3C)c21	?	?
Cc1ccc(CN2CCC(CNC(=O)Nc3ccc(C)c(C)c3)C2)cc1 (centres undefined)	?	-22%

Next part
SMILES	PMP22 txn prim	HTT promoter inh
Nc1nccc(Oc2ccc(NC(=O)c3c[nH]cc(-c4ccc(F)cc4)c3=O)cc2F)c1Cl	·	?
Cc1ccc(C)c(OC(=O)CSc2nnc(-c3cccs3)o2)c1	-5%	4%
Cc1cc(OC(C)C(=O)N(Cc2ccco2)Cc2ccccc2F)cc(C)c1Cl (centres undefined)	?	-15%
O=C(Nc1c(C(=O)N2CCN(c3ccccc3F)CC2)oc2ccccc12)c1ccc(Br)o1	-19%	?
CCn1cc(C(=O)NCCCN(CC(C)C)CC(C)C)c(=O)c2cc(S(=O)(=O)N3CCc4ccccc4C3)ccc21	-4%	-7%
N#CSCC(=O)O	·	3%
Cc1ccc(NC(=O)c2nc(S(C)(=O)=O)ncc2N(Cc2ccco2)Cc2ccccc2F)c(C)c1	1%	-24%
Cc1cccc(C)c1NC(=O)C1CCCN1S(=O)(=O)c1ccccc1 (centres undefined)	-11%	0%
CCCOc1ccc(CNC(=O)C(C)n2nc(C)n3c(cc4occc43)c2=O)cc1 (centres undefined)	-28%	-22%
COc1ccc(Br)cc1C(=O)Nc1nc2ccc(F)cc2s1	-10%	100%[activator]
CCc1ccc(NC(=O)Cn2c(=O)c(-c3ccccc3NC(C)=O)nc3ccccc32)cc1	-21%	-16%
CCCCOc1ccc(C2C(=O)N(C3CCCCC3)CC(=O)N2CCCC)cc1 (centres undefined)	-20%	-9%
Cc1ccc(NC(=O)CSc2nc3n[nH]c(C)c3c(=N)n2-c2ccccc2C)cc1C	17µM*	?
O=C(CN(c1ccc(Cl)c(C(F)(F)F)c1)S(=O)(=O)c1ccccc1)Nc1cccnc1	?	-15%
CCN1CCN(c2ncc3c(n2)CCN(Cc2sccc2C)C3)CC1	14%	-14%
Cc1ccccc1NC(=O)Cn1c(=O)n(CCC(=O)N2CCc3ccccc3C2)c(=O)c2ccccc21	-7%	-12%
CCCCOCc1cc(CN2CCN(c3cccc(Cl)c3)CC2)c(O)c2ncccc12	2.7µM*	?
COc1ccc(CNC(=O)CCCN2C(=O)CSc3c2c(C)nn3-c2ccccc2)cc1	-5%	?
CCOC(=O)c1c(S(=O)(=O)N2CCCC(C(=O)Nc3ccccn3)C2)c(C)n(C)c1C (centres undefined)	-2%	-3%
Cc1ccc(C2=NN(CC(=O)NCCN(CC(C)C)CC(C)C)C(=O)CC2)cc1	-10%	-8%
CCOC(=O)c1cc(-c2ccccc2)n(CCCC(=O)Nc2cccc(Cl)c2C)c1C	?	?
CC1(C(=O)NC2CCCCC2)Cc2ccccc2C(=O)N1Cc1ccc(Cl)cc1 (centres undefined)	-20%	-21%
CCOC(=O)c1ccc(-n2c(CCC(=O)O)ccc2-c2ccccc2)cc1O	-18%	8%
O=C(Cn1c(=O)n(-c2ccccc2)c(=O)c2c3c(sc21)CCC3)c1ccc(Br)cc1	-6%	-9%
CC(=O)c1ccc(N2CCN(c3ccc4cc(S(=O)(=O)N5CCC(C)CC5)ccc4n3)CC2)cc1	?	-19%

An excerpt from further up:
SMILES	PMP22 txn prim	HTT promoter inh
CCCCSc1nnc2c(n1)OC(c1ccc(Br)s1)Nc1ccccc1-2 (centres undefined)	-131%	20%
COc1cc(NC(=O)Cn2nnc(-c3ccc(C(F)(F)F)cc3)n2)c(C(=O)O)cc1OC	2%	-2%
COc1ccc(Cl)cc1NC(=O)Cc1ccc(NC(=O)N2CCCCc3ccccc32)cc1	34%	-21%

2 compounds drawn at random from the list so far:
SMILES	PMP22 txn prim	HTT promoter inh
CCN1CCN(c2ncc3c(n2)CCN(Cc2sccc2C)C3)CC1	14%	-14%
CCOC(=O)c1cc(-c2ccccc2)n(CCCC(=O)Nc2cccc(Cl)c2C)c1C	?	?

Compound activity (PubChem)
